StopGo reporter – lowers the luciferase signal of an FMDV 2A StopGo reporter | human cells with a luciferase reporter of 2A StopGo recoding; control for the full effect not named in the record | Potency, µM (top dose mostly 57.9 µM), for the others: at the highest dose signal change, negative = less light | 410,000 compounds, 1.2% hits; active = well fitted falling curve with a large enough effect; inconclusive = small, poorly fitted or top-dose-only effect; inactive = no such curve, though single readings can be large or run the other way; tested in HEK293T cells; also: % is scaled to controls: 0 for no effect and ±100 for the full control effect; nearly all actives have a fitted effect of over 45% in size; luciferase light after 4 h
SARS PLpro yeast – SARS-CoV PLP inhibition in yeast. S. cerevisiae expressing SARS-CoV PLpro, growth rescue; control for the full effect not named in the record. Potency, µM (series often up to 32.9 µM), for inactives: at the top dose activity, positive = growth rescue. 330,000 compounds, 0.19% hits. AID 485353; active means well fitted rising curve with a large enough effect; inconclusive means small, poorly fitted or top-dose-only effect; inactive means no such curve, though single readings can be large or run the other way; also: 0% is about no effect; nearly all actives have a fitted effect of over 55% in size; growth read by luminescence after 48 h
RE007 growth inh – less growth of the S. pombe RE007 Vpr strain | Potency, µM (titrated, usually from 92.2 µM), without a hit: at the highest dose activity change, negative = less growth | S. pombe RE007 Vpr strain, BacTiter-Glo ATP luminescence, 24 h; control for the full effect not named in the record | AID 651644 | 360,000 compounds, 0.21% hits; active = well fitted falling curve with a large enough effect; inconclusive = small, poorly fitted or top-dose-only effect; inactive = no such curve, though single readings can be large or run the other way;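 also: % is scaled to controls: 0 for no effect and ±100 for the full control effect; nearly all actives have a fitted effect of over 50% in size; the assay follows cell death caused by Vpr and the record does not say whether a fall means rescue or toxicity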
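Fission yeast RE007 carrying one integrated HIV-1 vpr copy, seeded at OD 0.01 in PMG+AL medium with 23 nL pinned compound. Grown 24 h at 30 degrees; viability read by BacTiter-Glo luminescence after 5 min.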
Cruzain inh noDet – blocks cruzain activity in detergent-free assay | P25779 | purified cruzain, Z-FR-AMC fluorescence, no detergent | Potency, µM, inactives show max response, negative = inhibition, usual class: inhibitors | 200,000 compounds, 2.3% hits;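 also: plate controls were enzyme without inhibitor for no effect and buffer without enzyme for full effect; nearly all actives have a fitted effect of over 40% in size; top concentration of the series not given in the record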
Target sequence (P25779 123-467 limits assumed): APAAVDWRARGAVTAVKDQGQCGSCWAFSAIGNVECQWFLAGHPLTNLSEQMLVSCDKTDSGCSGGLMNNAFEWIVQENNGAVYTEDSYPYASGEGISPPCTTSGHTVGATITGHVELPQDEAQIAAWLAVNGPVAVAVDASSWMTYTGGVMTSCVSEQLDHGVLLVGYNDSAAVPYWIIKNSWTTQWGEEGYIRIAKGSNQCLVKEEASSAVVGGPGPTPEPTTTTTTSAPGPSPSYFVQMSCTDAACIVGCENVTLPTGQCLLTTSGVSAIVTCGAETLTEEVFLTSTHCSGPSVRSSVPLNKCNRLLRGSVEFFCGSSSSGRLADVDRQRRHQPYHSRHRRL
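Purified cruzain at 1.5 nM, pre-incubated 15 min with compound at room temperature in 100 mM sodium acetate pH 5.5, 5 mM DTT, 0.00005% Triton X-100. Reaction started with 2 uM Z-FR-AMC; AMC fluorescence increase over 60 s gives rate.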
MARV entry inh – Marburg virus entry inhibition | Marburg virus pseudotyped entry inhibition, cell reporter; control for the full effect not named in the record; about a third of the inactives were read at about 46 µM | Potency, µM (titrated, usually from 37.8 µM), for inactives: at the top dose activity change, negative = inhibition, usual class: inhibitors | 300,000 compounds, 1.8% hits | AID 540276; active = well fitted inhibition curve with a large enough effect; inconclusive = small, poorly fitted or top-dose-only effect, or effect the other way; inactive = flat fitted curve, though single readings scatter; tested in HEK293 cells; about a fifth of its hits are not listed in these tables; also: % is scaled to controls: 0 for no effect and ±100 for the full control effect; luciferase read-out
Cruzain Triton – cruzain (T. cruzi) inhibition with detergent | P25779 | purified cruzain, Z-FR-AMC fluorescence, 0.01% Triton | Potency, µM, for the others: max response, negative = inhibition, actives largely listed as inhibitors | 200,000 compounds, 0.43% hits;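 also: plate controls were neutral wells for no effect and buffer without enzyme for full effect; nearly all actives have a fitted effect of over 40% in size; top concentration of the series not given in the record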
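15 min RT preincubation of 1.5 nM cruzain with compound, then 2 uM Z-FR-AMC added; kinetic AMC fluorescence, 60 s delta. Triton X-100 0.01%, pH 5.5.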
LASV entry inh – blocks Lassa virus binding to or entry into cells | Lassa virus pseudotype entry inhibition, cell reporter; control for the full effect not named in the record | AID 540256 | Potency, µM (doses to about 37.9 µM), for inactives: top-dose activity change, negative = inhibition, hits mostly inhibitors | 300,000 compounds, 1.2% hits; active means well fitted inhibition curve with a large enough effect; inconclusive means small, poorly fitted or top-dose-only effect, or effect the other way; inactive means flat fitted curve, though single readings scatter; tested in HEK293 cells; also: % is scaled to controls: 0 for no effect and ±100 for the full control effect; nearly all actives have a fitted effect of over 50% in size; luciferase read-out
NS1 inh – influenza NS1 inhibition; Potency, µM (series often up to 46.1 µM), for inactives: top-dose activity, positive = more growth; 270,000 compounds, 0.4% hits; S. cerevisiae slowed by influenza A NS1, growth recovery by OD600; active means well fitted rising curve with a large enough effect; inconclusive means small, poorly fitted or top-dose-only effect; inactive means no such curve, though single readings can be large or run the other way; also: nearly all actives have a fitted effect of over 50% in size
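Compounds were scored for reversing the slow growth caused by influenza A NS1 in S. cerevisiae, measured by optical density at 600 nm. Assay medium contained 2% galactose at pH 6.0; NS1-free yeast of the same strain were the positive control.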
The depositor's hits bear a star; ? = inconclusive; / = not tested or not shown; & = joins results of further samples; [ ] = dose if it differs, or a comment. Unless noted, calls follow the shape of the dose curve; as a rule, active = well fitted curve in the direction sought with a large enough effect; inconclusive = small, poorly fitted or top-dose-only effect, or another doubt; inactive = no such curve, though single readings can be large; an effect the other way counts as inactive or inconclusive. Potency is read from the fitted curve at half-maximal effect.

SMILES	StopGo reporter	SARS PLpro yeast	RE007 growth inh	Cruzain inh noDet	MARV entry inh	Cruzain Triton	LASV entry inh	NS1 inh
COc1ccc(-c2onc(C)c2C)cc1S(=O)(=O)NCc1ccco1	69%[activator]	/	/	-9%	/	0.0%	?	/
CCOc1ccc(NC(=O)CN(C)C(=O)CN2C(=O)NC3(CCCC3)C2=O)cc1OCC	3%	0%	2%	/	-3%[46.1 µM]	/	14%	/
Cc1ccc(CNC(=O)Nc2cccc(C)c2)cc1	67%[activator]	0%	3%	/	/	/	/	-6%
CCCN(C(=O)CCCSc1nc2ccccc2[nH]1)c1c(N)n(Cc2ccccc2)c(=O)[nH]c1=O	2%	-1%	14%	/	26%	/	15%	/
S=C(Nc1ccc(Cl)cc1Cl)NC1CCN(Cc2ccccc2)CC1	-39%	-23%	5%	-11%	?	2.3%	?	-5%
CCOC(=O)c1c(NC(=O)c2ccno2)c2cc([N+](=O)[O-])ccc2n1C	-4%	0%	-1%	/	-19%	/	23%	4%
Nn1c(Cc2cccc3ccccc23)n[nH]c1=S	-16%	4%	8%	/	16%	/	10%	/
C/C(=N\OC(=O)c1ccccc1)c1cc(-c2ccc(Cl)cc2)no1	47%[activator]	5%	5%	-17%	17%	3.2%	15%	8%
COc1ccccc1CNC(=O)c1ccc(Nc2nc3ccccc3n3nnnc23)cc1	0%	/	/	-2%	0%[46.1 µM]	0.0%	-1%[46.1 µM]	/
Cc1ccc(-c2nc(CCNC(=O)C(=O)Nc3ccc(C)c(C)c3)cs2)cc1	-18%	/	/	1%	/	-0.9%	?	/
COc1ccc(C(=O)CC(=O)C(=O)Nc2ccccc2Cl)cc1	-5%	8%	-18%	/	13%[46.1 µM]	/	17%[46.1 µM]	9%
O=C(Nc1ccccc1F)c1cc(-c2ccco2)nc2ccccc12	-23%	/	-22%	/	-10%	/	-2%	/
Cc1ccc(S(=O)(=O)NCCC(=O)OC(C)C(=O)NC2CC2)cc1 (stereo not drawn)	-1%	0%	2%	/	?	/	-3%	/
CCOc1ccc(C2NC(=O)C(C#N)=C(S)N2c2ccc(C)cc2)cc1OC (stereo not drawn)	-5%	2%	-1%	-7%	16%	-7.7%	-8%	5%
O=C(NCc1ccccn1)c1ccc(CS(=O)(=O)Cc2ccc(Cl)cc2)o1	-16%	1%	-3%	4%	-24%	-3.7%	-17%	3%
Cc1ccccc1S(=O)(=O)Oc1ccc2ccc(O)cc2c1	19%	-5%	0%	/	/	/	/	-36%
N/C(=N\OC(=O)Cc1ccc(Cl)cc1)c1ccccn1	19%	10%	5%	-9%	-16%	5.0%	?	-59%
O=C(Nc1nnc(SCCC2OCCO2)s1)C1CC(=O)N(c2ccc(F)cc2)C1 (stereo not drawn)	-4%	-1%	-4%	/	-12%	/	-16%	29%
COc1ccc(-n2ncc3c(Nc4cccc(C)c4)ncnc32)cc1	/	3%	15%	-2%	2%&2%	-18%	16%	-6%
CCOC(=O)C1CCCN(C(=O)c2ccco2)C1 (stereo not drawn)	-3%	12%	29%	-3%	-10%	-2.3%	1%	7%
COc1ccc(S(=O)(=O)Nc2ccc3c(c2)OCO3)cc1C(=O)O	/	11%	1%	-2%	3%	0.2%	-2%	-17%
CCCN(CCC)CCNC(=O)c1ccc2c(c1)NC(=O)C(CS(=O)(=O)Cc1cccc(Br)c1)N2 (stereo not drawn)	-7%	/	/	3%	/	-10%	11%[46.1 µM]	/
COc1ccc(N2CC(O)=C(c3nc(-c4ccc(F)cc4)cs3)C2=N)cc1OC	?	3%	6%	/	11%[46.1 µM]	/	-16%	-35%
Cc1ccc(/C=C/C2=NN(Cc3ccccc3Cl)C(=O)CC2)cc1	-23%	-20%	0%	5%	-15%	-10%	-5%	-2%
O=C(CCCCn1c(=O)c2ccccc2n(Cc2ccccc2Cl)c1=O)NCc1ccc2c(c1)OCO2	3%	/	/	-9%	36%[46.1 µM]	-1.4%	-14%[46.1 µM]	/
O=C(Nc1ccc2c(c1)OCCO2)c1ccc(Cl)c(S(=O)(=O)N2CCCCC2)c1	?	-5%	9%	-19%	?	-3.2%	21µM*	17%
Cc1cccc(N(C(=O)Cn2nnc(-c3ccc(F)cc3)n2)C(C(=O)NC(C)(C)C)c2ccncc2)c1 (stereo not drawn)	-13%	0%	14%	/	-23%[46.1 µM]	/	-19%[46.1 µM]	2%
COC(=O)C1=C(C)NC(=O)/C1=C\c1cccs1	9%	-1%	?	-5%	-12%	-2.0%	0%	-7%
CCOc1ccc(S(=O)(=O)N2CCCCCC2)cc1	45%[activator]	7%[6.58 µM]	14%	-3%	5%	0.0%	16%	-8%
CCN(CC)c1ccc(C(=O)NCc2ccc3c(c2)CCN3C(C)=O)cc1	3%	/	/	?	/	-1.3%	6%[46.1 µM]	/
O=C(Cn1nc(C(F)(F)F)c2c1CCC2)NC1CCCCC1	12%	-1%	7%	-8%	-3%	1.4%	13%	-10%
CCOC(=O)C1CCN(C(=O)Nc2ccc(C)c(Cl)c2)CC1	31%[activator]	0%	4%	/	31%	/	-5%	-44%
Cc1ccc(CCN2CCN=C2N(C)C)cc1	-19%	-3%	4%	/	/	/	/	-12%
CCOc1ccc(S(=O)(=O)Nc2cc(OC)ccc2OC)cc1	-13%	-3%	-3%	-13%	?	-1.4%	?	-13%
C=CCn1cccc(C(=O)Nc2ccc(N(C)C)cc2)c1=O	41%[activator]	-3%	-2%	/	/	/	/	-7%
Cc1ccc(CN2CCN(C3CCOCC3)CC2CCO)cc1 (stereo not drawn)	-20%	0%	-2%	/	17%[46.1 µM]	/	?	-2%
CC(=O)Nc1ccc(NC(=O)CSc2nnc(NC(=O)c3cccc(F)c3)s2)cc1	11%	-2%	-7%	/	-21%	/	-19%	-8%
CC1CC(Nc2cccc(O)c2)=CC(=O)O1 (stereo not drawn)	-2%	12%	-5%	-4%	0%	3.9%	2%	0%
Cc1cc(-c2ccccc2)n(-c2ccccc2)n1	26%	9%	-8%	/	3%[46.1 µM]	/	8%[46.1 µM]	-6%
N=c1c(S(=O)(=O)c2ccccc2)cc2c(=O)n3ccccc3nc2n1C1CCCC1	6%	1%	-14%	/	3%[46.1 µM]	/	13%[46.1 µM]	-5%
COc1ccc(N(CC(=O)N2CCN(c3ccccc3)CC2)S(=O)(=O)c2c(C)nn(C)c2C)cc1	-8%	/	/	?	-2%[46.1 µM]	-1.4%	20%[46.1 µM]	/
O=C/C(=C\Nc1ccc(Cl)cn1)c1nc2cc(Cl)ccc2o1	10%	/	7%	?	-3%[46.1 µM]	-6.5%	-29%	1%
CCN(CC(=O)NCc1ccc(Cl)cc1)C(=O)CCOc1ccc(C)cc1	18%	-3%	10%	/	-20%	/	-14%	/
O=c1[nH]c(-c2ccc(Cl)cc2)nc2c1cnn2-c1ccccc1	/	1%	/	25µM*	5%	4.7%	/	6%
COc1cccc(/C=N/NC(=O)C(=O)N2CCCCCC2)c1OC	17%	1%	8%	/	-1%[46.1 µM]	/	-12%[46.1 µM]	6%
Cn1c(SCc2ccc(Br)cc2)nnc1-c1ccccn1	28%	0%	-8%	/	?	/	19%[46.1 µM]	-56%
CCOc1ccc(CNC(=O)c2ccc(-c3nc(CS(=O)(=O)c4ccccc4)c(C)o3)cc2)cc1	-10%	/	/	?	/	-2.2%	39%[46.1 µM]	/
CC(C)Oc1ccc(OCCNC2CCCC2)cc1	17%	-8%	18%	1%	6%	0.1%	-4%	7%
CSc1ccc(S(=O)(=O)N2CCN(Cc3ccc4c(c3)OCO4)CC2)cc1	-24%	-17%	-2%	-13%	-20%	-4.1%	0%	-75%
c1ccc(-c2nnsc2Sc2ccccn2)cc1	21%	-8%	-8%	/	?	/	4%	/
COc1ccccc1N1CCN(S(=O)(=O)c2ccc3c(c2)CC(C)N3C(C)=O)CC1 (stereo not drawn)	-27%	2%	13%	/	/	/	/	-6%
COc1cc(C(=O)Nc2ccc(S(=O)(=O)N3CCOCC3)cc2)c([N+](=O)[O-])cc1OC	-1%	0%	3%	/	?	/	-1%	-12%
CC(=O)N1CCN(C(=O)c2ccc(Cl)c(S(=O)(=O)N3CCCC3)c2)CC1	2%	-7%	11%	/	?	/	-18%[46.1 µM]	/
COc1ccc(Cc2nnc(N/N=C/c3ccc(O)cc3O)[nH]c2=O)cc1OC	-10%	6.3µM*	-10%	-2%	?	-8.7%	-6%	?
Cc1cc(Cl)ccc1OCC(=O)NNC(=O)C1CSC2(C)CCC(=O)N12 (stereo not drawn)	-16%	1%	-29%	/	12%[46.1 µM]	/	-9%	/
Cc1nn(-c2ccccn2)c2nc(-c3cccs3)cc(C(=O)NCc3ccco3)c12	0%	3%	21%	?	-23%	-6.3%	0%	23%
Cc1cn2c(=O)cc(COC(=O)COc3ccc(F)cc3)nc2s1	-4%	/	/	-5%	/	-3.7%	6%[46.1 µM]	/
S=C(NC1CC1)NC1CCCc2ccccc21 (stereo not drawn)	-4%	26%	4%	/	21%	/	5%	/
Cc1c(-n2cc(C(=O)c3cc(Cl)ccc3O)cc(C#N)c2=O)c(=O)n(-c2ccccc2)n1C	14%	-1%	0%	-11%	1%	-5.3%	-1%	3%
CCOC(=O)C1(Cc2cccc(OC)c2)CCN(Cc2ccon2)CC1	-22%	-1%	3%	/	/	/	/	2%
Later entries:
SMILES	StopGo reporter	SARS PLpro yeast	RE007 growth inh	Cruzain inh noDet	MARV entry inh	Cruzain Triton	LASV entry inh	NS1 inh
O=C(COc1cccc(Cl)c1)N/N=C\c1cc2ccccc2nc1Cl	-19%	-17%	3%	-18%	2%	9.4%	?	-6%
COc1cc(NC(=O)c2ccco2)c(C(=O)OCC(=O)c2c[nH]c3ccccc23)cc1OC	-20%	6%	-6%	11%	-1%	-2.3%	-13%	?
O=C(O)c1ccccc1NS(=O)(=O)c1cccc(N=Nc2c(O)[nH]c(=S)[nH]c2=O)c1	-17%	4%	-3%	/	8%[46.1 µM]	/	1%	/
CCCCn1c(=O)c2oc3ccccc3c2n(CC(=O)Nc2ccccc2OC)c1=O	13%	/	/	11%	/	-0.7%	-1%[46.1 µM]	/
CCN1CCN(C(=O)c2cc3cc4ccc(OC)cc4nc3s2)CC1	28%	-10%	6%	-15%	0%	-17%	?	-7%

Screening data: PubChem, National Center for Advancing Translational Sciences (NCATS)

An unsorted share of the library. About 4.8% of those tested had a hit in this group.
